Mtb hypoxia inh = reduces hypoxia-regulated biosensor signal in M. tuberculosis; M. tuberculosis hypoxia-regulated fluorescent reporter, fluorescence; fluorescence inhibition, % (concentration not given with the values); AID 1159583; 300,000 compounds, 0.1% hits;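 active means 35 to 45% if threefold the growth effect, above 45% if 1.5-fold the growth effect; inactive means the rest, general growth blockers included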;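 further: wells of about 50 µL received 100 nL stock; 0% = vehicle wells and 100% = reference inhibitor wells; whole bacteria with a GFP reporter of the hypoxia response; strong numbers were not always called active; many hits fall short of the cut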
ugtP null kill = kills S. aureus RN4220 lacking UgtP; S. aureus RN4220 ugtP deletion, OD600 growth, 16 h; some inactives read as strong as hits; growth inhibition, % (concentration not given with the values); 330,000 compounds, 0.54% hits; AID 1259309;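 active means z-score under -3 and OD600 up to 0.15 on both plates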;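 further: plate controls were untreated wells for no effect and antibiotic for full effect; wells of about 80 µL received 100 nL stock; the first replicate is given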
BJeLR viability = BJeLR cell viability loss. BJeLR (HRASV12) viability, CellTiter-Glo ATP luminescence, 48 h; reference of the scale not given here. inhibition, % (no concentration beside the values). 300,000 compounds, 0.17% hits;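 active means replicate mean above 50%; inconclusive means above 50% but judged a plate artefact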;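 further: 50 nL library stock added to about 25 µL; numbers are from one replicate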
PrP 5UTR inh = suppresses PrP 5' UTR mRNA reporter expression | cell-based PrP 5' UTR mRNA reporter, plate reader | inhibition, % (no concentration beside the values) | 340,000 compounds, 0.35% hits | AID 488862;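 active means every replicate at 50% or more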;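 further: 0 = median of the neutral control wells; tested in H4 reporter cells; numbers are from one replicate; inactives centre near -14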
Autofluor counter = flagged as autofluorescent in microsphere protease counterscreen; compound autofluorescence counterscreen, microsphere flow cytometry; stronger effect = higher value; fluorescence intensity (concentration not given with the values); 360,000 compounds, 3.1% hits; AID 624483;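 active means at least 3 SD above the mean of all compounds, about 16000 in these data; inconclusive means too few beads counted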;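 further: 100 nL of 1 mM stock went into each well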
RN4220 kill = S. aureus RN4220 growth inhibition; OD600, 16 h; 330,000 compounds, 0.33% hits; AID 1259311; inhibition, % (concentration not given with the values);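 active means z-score of -3 or lower and OD600 up to 0.18 on both plates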;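 further: plate controls were untreated cells for no effect and reference antibiotic for full effect; stock transfer was 100 nL into about 80 µL; one replicate is shown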
Mtb hypoxia inh growth = further read-out of Mtb hypoxia inh, marked with its call; growth inhibition, %; measured here: M. tuberculosis growth (absorbance);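 0% = vehicle and 100% = reference antibiotic; read after six days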
* marks the source's active call; other numbers are inactive results; ? = inconclusive; . = not tested or not shown. The order is random, and some 4% of all compounds hit somewhere here.

mol	Mtb hypoxia inh	Mtb hypoxia inh growth	ugtP null kill	BJeLR viability	PrP 5UTR inh	Autofluor counter	RN4220 kill
O=[N+]([O-])c1cccc(/C=N/Nc2cc(Cl)nc(-c3ccccc3)n2)c1	.	.	.	-9	-11	2470	.
O=C(Nc1cccc(NC(=O)c2cccc([N+](=O)[O-])c2)n1)c1cccc([N+](=O)[O-])c1	7	2	1	-3	0	4189	1.4
N#CCn1c(CCl)nc2ccccc2c1=O	.	.	3	4	-21	4522	5.4
COc1ccccc1-c1cc(C(=O)N2CCN(c3ccccc3OC)CC2)no1	-3	2	12	13	-24	11466	3.7
Cc1cn2c(-c3ccc(Cl)cc3)nnc2s1	.	.	4	-3	14	4287	2.7
CCOc1ccc(Nc2ncnc3c2cnn3C)cc1	0	4	7	-16	-18	3603	1.2
CCOc1cc(NC(=S)Nc2cccc(OC)c2)c(OCC)cc1NC(=O)C1CC1	5	7	2	-21	-12	23099*	4.6
CCOC(=O)c1c(C)oc(N=Cc2ccccc2O)c1C#N	15	8	-5	.	.	.	10
C[n+]1c(-c2ccccc2)sc([S-])c1-c1ccccc1	7	-8	1	-7	.	.	8.2
CCCC[C@H]1C2=C3[C@@H](CC(C(=O)OC)=C[C@@H](C(=O)OC)[C@H]3C(C)(C)C2=O)n2c(=O)n(-c3ccccc3)c(=O)n21	.	.	.	10	-17	4196	.
Fc1ccc(COc2ccc(/C=N/n3cnnc3)cc2)cc1	.	.	.	-11	11	4220	.
O=C(Nc1nnc(-c2ccco2)s1)C1CC1	2	0	8	9	-43	8751	2.9
O=C(CN1CCN(Cc2ccccc2)CC1)N/N=C/c1cccs1	.	.	.	2	-13	4824	.
Cc1cc([N+](=O)[O-])nn1CCCC(=O)NC1CCCCC1	2	2	-1	-8	-14	4689	4.2
CC(=O)c1ccc(OCC(O)CN(C)CCOc2ccc(Br)cc2)cc1 (centres undefined)	16	15	4	-8	-5	4022	1.4
O=C1C(=Cc2ccco2)CCCC1=Cc1ccco1	.	.	11	.	-115	4720	2.2
COc1ccccc1NC(=O)CSC1=NC(=O)C(Cc2ccccc2)C(=O)N1 (centres undefined)	-1	-6	10	3	-24	3892	-2.5
CCCCCCn1c(=O)c(C(=O)NN=Cc2cccc(F)c2)c(O)c2ccccc21	-6	-2	100*	.	.	.	60
Cc1cc(C)n2nc(C(=O)OCC(=O)Nc3cc(Cl)ccc3C)nc2n1	-2	-5	4	.	-15	6515	1.8
CCCCn1c(C)c(C(=O)O)c2cc(OC)c3ccccc3c21	7	4	25	-4	-11	3645	3.5
Cc1ccc2c(C)cc[n+](CCCS(=O)(=O)[O-])c2c1	6	2	6	0	1	2526	4.2
O=C(NNC(=O)C1CC=CCC1)c1ccccc1Cl (centres undefined)	-2	-11	2	-3	-13	3245	1.3
O=C1/C(=C\c2ccco2)NC(=S)N1c1ccccc1	-11	-13	42	-2	-33	2570	0.0
[O-][n+]1c2ccccc2cc2ccccc21	9	4	2	3	-14	3964	7.1
CCOC(=O)c1cc(S(=O)(=O)N2CCN(C(=O)OCC)CC2)cn1C	7	4	-2	5	-24	2319	-17
Cc1nn(CC(=O)N(CC(C)C)C2CCS(=O)(=O)C2)c(C)c1[N+](=O)[O-] (centres undefined)	2	9	4	.	-8	3851	-1.1
CCOC(=O)c1c(NC(=S)NC)sc2c1CC(C)(C)SC2	7	0	20	-3	-9	2330	18
Cc1c(C(=O)N/N=C/c2ccc(N(C)C)cc2)[nH]c2ccc(Cl)cc12	.	.	.	15	6	2054	.
O=C(Nc1ccc(S(=O)(=O)N2CCCC2)cc1)c1cccc(OC(F)F)c1	6	1	5	-2	-10	?	2.2
CC(C)C(CO)N1CCN(Cc2ccccc2)CCC1=O (centres undefined)	3	11	5	8	-49	3930	1.5
CCn1cnnc1SCC(=O)c1c(N)n(C2CC2)c(=O)[nH]c1=O	2	3	2	.	-12	5293	-0.7
N#CCN1CCN(c2ccc(C(F)(F)F)cc2)CC1	-6	-10	0	13	-24	9249	5.9
NC(=S)NN=C1C2CC3CC(C2)CC1C3	-8	0	5	-7	-13	4390	1.3
CCN(CC)C(=O)Oc1ccc2c(=O)c(-c3ccc(OC)cc3)c(C)oc2c1	2	10	-10	-2	-13	11201	-2.8
Cc1ccccc1-c1nsc(SCC(=O)NCc2ccc3c(c2)OCO3)n1	-5	-2	-5	-5	0	2585	-7.4
COc1ccc(/C=C/C(=O)OCC(=O)NCC2CCCO2)cc1 (centres undefined)	.	.	.	-2	6	2060	.
Cc1n[nH]c(=S)n(/N=C/c2cccs2)c1=O	.	.	.	1	9	3368	.
Cc1noc(C)c1CSc1nc2ccccc2c(=O)n1-c1ccccc1	.	.	14	12	-27	4587	0.0
COc1cccc(C2NC(=O)NC(C)=C2C(=O)Nc2cc(OC)ccc2OC)c1 (centres undefined)	9	11	10	5	-7	17900*	6.9
O=C(CCCN1C(=O)c2ccccc2C1=O)Nc1nnc(C2CC2)s1	11	-3	7	26	-27	2588	4.9
Cc1nc2nc(SCC(=O)NCCCN3CCCC(C)C3)nn2c(C)c1Cc1ccccc1Cl (centres undefined)	5	-1	4	-1	-9	5995	-0.5
CC(=O)N=c1c(C#N)cc2c(=O)n3cccc(C)c3nc2n1Cc1ccco1	10	10	11	-6	.	4885	4.6
O=C(NN=Cc1cccs1)c1cc(-c2ccncc2)nc2ccccc12	-1	2	1	.	.	.	2.0
Cc1n[nH]c(=O)c2c1nnn2Cc1ccc(F)cc1	-1	-5	11	10	-16	3703	2.8
CC(=O)Nc1ccc(S(=O)(=O)NCCC(=O)OCC(=O)c2ccccc2)cc1	-3	2	-6	2	-17	4243	-3.6
Cc1ccc(NC2=C([N+](=O)[O-])CS(=O)(=O)C2)cc1	2	2	-3	-9	-8	8101	6.7
N#Cc1cnn(CC2CCCCC2)c1N	5	8	-4	0	-23	3040	-12
COc1ccccc1CC(=O)Nc1ncc(C)s1	-7	3	1	2	-24	3975	1.1
O=C(Cn1cnc2ccccc21)OCC(=O)N1CCCCC1	1	-3	-1	.	-4	3946	1.4
COCCn1c(C)cc(C(=O)COC(=O)c2ccc(Cl)c(S(N)(=O)=O)c2)c1C	.	.	.	-16	-7	?	.
CN(C)c1oc(-c2ccccc2F)nc1C#N	.	.	7	-8	-1	5031	5.3
CN(C)C(=S)Nc1cccc(F)c1	14	11	10	12	.	5853	4.0
COC(=O)c1cc(-c2cccc(OC)c2)on1	.	.	.	-5	-9	4311	.
CCC(C)[C@H](Nc1nc(-c2ccccc2)nc2c1oc1ccccc12)C(=O)O (some centres undefined)	.	.	.	2	-4	2912	.
O=C(NCc1ccccc1)C(NC(=O)c1ccccc1)=C(Sc1ccccn1)c1ccccc1	16	3	2	.	.	.	5.8
Cc1cccc(N2CCN(CC(=O)Nc3ccc(-n4cnnn4)cc3)CC2)c1C	0	7	0	-10	-5	2515	7.0
CC(C)NC(=O)N(C)CC1Oc2c(NS(=O)(=O)c3cccs3)cccc2C(=O)N(C(C)CO)CC1C (centres undefined)	4	4	3	.	.	.	6.7
Cc1nn(C(=O)c2ccccc2)c2c1C(=O)CC(C)(C)C2	1	-1	1	2	-20	.	2.2
CCOc1ccc(NC(=O)CCC(=O)Oc2ccc(C)cc2)cc1	2	-2	1	-6	-9	3673	5.3
Cc1cc(C)nc(NC(=O)c2c(C(=O)O)noc2C)n1	2	8	13	0	-19	2063	3.3

Additional structures follow.
mol	Mtb hypoxia inh	Mtb hypoxia inh growth	ugtP null kill	BJeLR viability	PrP 5UTR inh	Autofluor counter	RN4220 kill
COc1ccc(C(C)=NNC(=O)CNC(=O)C(c2ccccc2)c2ccccc2)cc1OC	0	-1	10	.	.	.	-0.5
COc1ccc(-c2cn3cc(C)ccc3n2)cc1Br	8	5	-4	-12	-69	2022	11
N#Cc1ccc(-c2c(-c3ccccc3)ncc3cc(F)ccc23)cc1	3	20	10	.	-38	4081	2.7
O=C([C@@H]1CC=C[C@@H]2CCN(C3CC3)C(=O)[C@@H]21)N1CCN(c2ccccc2)CC1	.	.	.	12	-22	4013	.
Cc1cc(Cl)ccc1NC(=O)CN1CCCC1	5	-1	0	-17	-14	2991	-1.0
O=C(CCCN1C(=O)c2ccccc2C1=O)Nc1ccccn1	0	0	-2	2	-23	3748	2.5
Cc1ccc(NS(=O)(=O)c2cc(NC(=O)C(C)Oc3ccccc3)ccc2C)c(C)c1 (centres undefined)	2	3	4	-9	-15	2421	-8.4
Cc1ccc(C(=O)OCC(=O)NNC(=O)COc2ccc(Cl)cc2)c(O)c1	-3	-1	1	5	-11	5889	-0.4
CC(=O)c1cccc(NC(=O)CN(c2cccc(F)c2)S(C)(=O)=O)c1	.	.	1	2	-8	2551	-2.2
O=C(COC(=O)c1ccc(Cl)cc1)NC1CCCCCC1	1	9	1	.	-7	5950	1.1
Cc1cccc(N/C=C(\[N+](=O)[O-])S(=O)(=O)c2ccccc2)c1	-1	-7	-2	1	-13	4039	-0.5
CCCCOc1ccc(CN2CCN(CCO)CC2)cc1	8	6	7	3	-16	11216	-1.0
CC(C)C(CO)NC(=O)c1ccc2c3n(nc2c1)-c1ccccc1CO3 (centres undefined)	2	7	5	.	.	.	4.6
Cn1c(N)c(C(=O)CSc2ncn[nH]2)c(=O)n(C)c1=O	7	-11	-3	-12	-22	3975	0.3
CC(C)(C)NC(=O)NC(=O)COC(=O)CNC(=O)c1cccc(F)c1	9	5	1	-6	-8	2618	5.1
Cc1sc(NC(=O)C2CCCCC2C(=O)O)c(C(N)=O)c1-c1ccc(C(C)C)cc1 (centres undefined)	.	.	9	0	-16	2629	3.9
COc1ccc(-c2c(NC(=O)c3ccco3)n(-c3ccccc3)nc(C)c2=O)cc1	-2	-5	9	-13	-17	6188	0.7
Cn1cc(SCC(=O)NCc2ccc3c(c2)OCO3)c2ccccc21	1	2	-3	0	-21	4312	5.7
O=C(c1cccs1)N1CCN(S(=O)(=O)N2CCOCC2)CC1	-1	5	-2	-4	-12	3447	2.7
O=C(c1ccc(OC2CCN(Cc3ccccc3OC(F)F)CC2)cc1)N1CCCC1	-4	8	-1	6	2	5790	0.0
C/C(CC(=O)NCC(C)C)=N\NC(=O)COc1cc(C)c(Br)cc1Br	.	.	.	-8	-3	2060	.
Cc1ccc(-c2csc(NC(=O)c3ccno3)n2)cc1	-1	9	4	5	-23	3908	-2.3
O=C(Cn1cnc2c(cnn2-c2ccc(F)cc2)c1=O)NCc1ccco1	23	-15	-1	1	-23	2830	-15
CC(=O)c1ccc(S(=O)(=O)NCCC(=O)OCC(=O)NCCc2ccccc2)cc1	1	12	1	-6	0	6127	-1.7
Cc1nc(Oc2ccc(S(=O)(=O)N3CCOCC3)cc2Cl)c2c3c(sc2n1)CCCC3	-1	1	21	-13	-26	2271	4.8
CCCCCCn1c(CN2CCN(C(=O)c3ccco3)CC2)nc2c1c(=O)n(C)c(=O)n2C	-9	-1	-2	-7	-25	6496	1.3
O=C(Cc1ccccc1)NNC(=O)Nc1ccc(Cl)c(Cl)c1	6	11	-8	-2	-7	2265	-3.6
Cc1nnc(SCC(N)=O)n1CC1CCCO1 (centres undefined)	6	10	-5	5	-27	3982	0.7
COC(=O)c1ccc(CSc2ncnc3c2nnn3-c2ccc(F)cc2)o1	3	7	-2	-5	-8	.	-4.6
CCCc1ncc(C(O)c2cccc(OC)c2)n1C (centres undefined)	-6	-5	2	3	-15	6035	2.6
COc1cc(CN(C)Cc2nc3cc(C(F)(F)F)ccc3c(=O)[nH]2)ccc1OC(F)F	13	7	1	3	-31	4911	2.6
Cc1cc(N)ccc1NC(=O)CN1CCCC1	6	3	5	-11	.	3942	2.3

From PubChem BioAssay
